# TRPML1 ag – agonists of human TRPML1 channel; Q9GZU1; TRPML1-expressing cells, Ca2+ dye fluorescence, FDSS; host cell line not named in the record; reference of the full effect not given here; activation, % (test concentration not listed); hit rate 0.12% among 410,000; AID 624414; in the data active = activation above about 50%; inconclusive = about 30% to 50%; inactive = below about 30%; further: 0% is about no effect; the text of the record puts the active cut at 80%
#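 Kinetic FDSS Ca2+ read in Tet-induced TRPML1-DL cells (ABD Ca8 dye plus quencher, 45-90 min RT loading): baseline, then compound, then 110 s agonist window; EC80 agonist 54-4 at 4uM final added afterwards for a 110 s antagonist window.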
# TRPV1 potentiator – human TRPV1 potentiation; potentiation, % at 8.33 µM; hit rate 0.02% among 320,000; TRPV1-expressing cells, Fluo-8 calcium influx, capsaicin EC20 potentiation; host cell line not named in the record; control for the full effect not named in the record; AID 540277; Q8NER1; active means potentiation above 80%; inconclusive means 30% to 80%; inactive means below 30%; further: 0% is about no effect
# Target sequence (Q8NER1 whole entry, looked up): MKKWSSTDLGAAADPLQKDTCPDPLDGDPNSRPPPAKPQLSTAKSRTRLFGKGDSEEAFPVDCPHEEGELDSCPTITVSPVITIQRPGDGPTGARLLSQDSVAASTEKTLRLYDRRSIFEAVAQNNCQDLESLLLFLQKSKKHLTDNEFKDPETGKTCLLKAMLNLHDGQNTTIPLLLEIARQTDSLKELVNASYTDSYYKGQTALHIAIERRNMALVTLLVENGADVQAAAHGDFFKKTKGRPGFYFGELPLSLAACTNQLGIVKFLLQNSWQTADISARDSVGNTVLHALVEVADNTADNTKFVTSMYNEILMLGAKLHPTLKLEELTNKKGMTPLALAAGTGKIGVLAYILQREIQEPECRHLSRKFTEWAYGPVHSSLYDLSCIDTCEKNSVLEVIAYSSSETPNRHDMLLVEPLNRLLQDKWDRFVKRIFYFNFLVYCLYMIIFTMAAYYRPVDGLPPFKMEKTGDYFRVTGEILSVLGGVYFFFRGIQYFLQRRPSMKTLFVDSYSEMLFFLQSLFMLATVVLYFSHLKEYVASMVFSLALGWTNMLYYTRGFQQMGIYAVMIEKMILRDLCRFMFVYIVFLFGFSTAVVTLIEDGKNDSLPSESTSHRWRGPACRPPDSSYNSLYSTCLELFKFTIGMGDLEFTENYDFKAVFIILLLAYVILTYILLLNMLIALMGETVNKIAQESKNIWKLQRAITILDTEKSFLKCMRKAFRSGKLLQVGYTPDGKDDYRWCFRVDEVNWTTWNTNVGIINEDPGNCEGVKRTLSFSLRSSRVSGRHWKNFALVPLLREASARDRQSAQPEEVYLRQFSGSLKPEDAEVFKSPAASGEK
#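 Cells expressing TRPV1 were dye-loaded with Fluo-8 and read kinetically: 10 s baseline, 3 min after compound (agonist portion), then 2 min after EC20 capsaicin (allosteric enhancer portion). Calcium-bound dye fluorescence at 480/520 nm.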
# Sfp inh – Sfp phosphopantetheinyl transferase inhibition; Q9F4F7; Biochemical Sfp PPTase activity, qHTS; Potency, µM, for inactives: max response, negative = inhibition, usual class: inhibitors; hit rate 3.5% among 310,000; AID 1490; active means well fitted inhibition curve with a large enough effect; inconclusive means small, poorly fitted or top-dose-only effect, or another doubt; inactive means no such curve, though single readings can be large or run the other way;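 further: the enzyme is Sfp with the accession as filed and its product quenches rhodamine fluorescence; potency means the concentration at half of the fitted maximal effect; 0% = enzyme reaction without inhibitor and -100% = no enzyme wells; top concentration of the series not given in the record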
#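 Fluorescence-quenching assay: 15 nM Sfp-PPTase preincubated 15 min at room temperature with compound, then 5 uM rhodamine-CoA and 12.5 uM BHQ-2-labelled YbbR peptide added. Fluorescence (ex 525/em 598 nm) read at start and after 30 min; difference gives rate.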
# ClpP mod – qHTS Assay for Activators of ClpP; hit rate 1.9% among 340,000; purified B. subtilis ClpP, FRET peptide cleavage, 20 min; Potency, µM (highest dose often 57.5 µM), for the others: at the top dose activity change, negative = active; AID 651965, 2013; active = well fitted falling curve with a large enough effect; inconclusive = small, poorly fitted or top-dose-only effect; inactive = no such curve, though single readings can be large or run the other way; further: potency means the concentration at half of the fitted maximal effect; the source files actives as falling curves though it sought activators and does not explain the sign; nearly all actives have a fitted effect of over 65% in size; many hits overshoot -100%
# Target sequence (P80244 whole entry, looked up): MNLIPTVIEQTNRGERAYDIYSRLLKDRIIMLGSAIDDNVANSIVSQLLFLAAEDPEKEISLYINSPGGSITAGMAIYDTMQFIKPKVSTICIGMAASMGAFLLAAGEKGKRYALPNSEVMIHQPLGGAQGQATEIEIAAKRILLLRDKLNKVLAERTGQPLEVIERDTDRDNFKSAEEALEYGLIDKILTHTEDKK
#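 Buffer: 100 mM Tris/HCl pH8, 100 mM KCl, 0.05% low protease BSA, 2.5% glycerol, 0.01% Tween-20. ClpP 10 microg/mL final; 20 min RT; delta FRET normalized to ADEP and DMSO controls.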
# PINK1 expr mod – changes PINK1 expression. PINK1 immunofluorescence, high-content cytometry, 24 h. Potency, µM (highest dose often 76.6 µM), inactives show at the highest dose activation (PINK1 increase), hits mostly activators. hit rate 0.2% among 410,000. AID 624263; active = well fitted activation curve with a large enough effect; inconclusive = small, poorly fitted or top-dose-only effect; inactive = flat fitted curve, though single readings scatter; cell line not stated here;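 further: potency means the concentration at half of the fitted maximal effect; % of control where 0% means no effect; nearly all actives have a fitted effect of over 65% in size; a mitochondrial uncoupler was the plate control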
#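 PINK1 protein level read as immunofluorescence by microplate cytometer in a fixed, stained stable cell line after 24 h exposure to five compound concentrations, with CCCP as control.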
# TRPML1 blocker – inhibitors of human TRPML1 channel; activity change, negative = inhibition, % (concentration not given with the values); AID 624415; Q9GZU1; hit rate 0.02% among 390,000; TRPML1-inducible cells, Ca2+ dye fluorescence, FDSS; active compounds read low; inhibition of EC80 agonist-evoked calcium signal; in the data active means activity change below about -50%; inconclusive means about -30% to -50%; inactive means above about -30%;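 further: stimulus is agonist 54-4 at its EC80 concentration; on the % scale 0 is the no-effect control and ±100 the full control effect; the text of the record puts the active cut at -80%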
#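 Calcium fluorescence in TRPML1-DL cells induced overnight with Tet: a 110 s read after compound pin addition, then a 110 s antagonist read after challenge with 54-4 at 4 uM final (EC80).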
# Menin-MLL FL inh – menin-MLL binding inhibition, fluorescein peptide; AID 1766; FP activity change, % at 61.4 µM; Fluorescence polarization, fluorescein-MLL peptide displacement from menin; 290,000 tested, under 10 active; inconclusive = falling polarisation curve, or a change in total fluorescence; inactive = total fluorescence flat and polarisation flat or rising; no compound was filed as active; the % refers to the polarisation; negative = inhibition;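 further: % of control where 0% means no effect; inhibitors lower the polarisation; unlabelled MLL peptide was the positive control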
# * hit, by the source's call; ? = inconclusive; · = not tested or not shown; & = joins results of further samples; [ ] = dose if it differs, or a comment.
# Order of values: TRPML1 blocker, Sfp inh, TRPML1 ag, Menin-MLL FL inh, TRPV1 potentiator, ClpP mod, PINK1 expr mod
- CC(C)C[C@@H](CO)N1CCN(CC(C)C)CCC1=O
  4.9, 21.0%, -0.4&-0.1&-0.1, 7.9, -4.0, 0.6%&-0.6%&1.3%, 0.3%
- COc1ccc(Cc2c(C3CCCCC3)nc3cc(C)c(Br)c(C)n23)c(C)c1
  ·, ·, 5.5, ·, ·, 0.3%, 8.4%
- CCN(CC)C(=O)CSc1nc2cc3c(cc2c(=O)n1CCCCCC(=O)NCCc1ccc(OC)c(OC)c1)OCO3
  -7.5, ·, 3.5, ·, ·, -1.9%, 0.5%
- O=C(O)CCC(=O)N1N=C(c2ccc(Br)cc2)CC1c1cccs1 (configuration not stated)
  19.7, 18.5%, 0.1, 1.9, 7.5, ·, -0.5%
- CCN(CC(=O)NC1CCS(=O)(=O)C1)S(=O)(=O)c1ccccc1Cl (configuration not stated)
  2.0, 8.6%, 0.6, 0.5, 2.9, 0.3%, -0.3%
- CCCn1c(SCC(=O)Nc2ccc3c(c2)OCO3)n[nH]c1=O
  -14.8, ·, 1.3, ·, ·, ·, -1.6%
- CCc1ccccc1NC(=O)Nc1c(C)n(C)n(-c2ccccc2)c1=O
  -1.2&7.8, 20.9%, 0.4&-0.4, ·, 1.8, -7.8%&-1.3%, -1.6%&-0.3%
- CCc1ccccc1NC(=O)Cn1c(=O)n(CCCCCC(=O)NCc2ccc(C)cc2)c(=O)c2sccc21
  -24.4, ·, 4.2, ·, ·, -2.4%, 3.5%
- COc1ccc(CCn2c(NCc3ccco3)nc3c2c(=O)[nH]c(=O)n3C)cc1
  -7.3, -5.2%, 1.5, 6.1, -17.5, -4.4%, 2.0%
- CCN(CC)S(=O)(=O)c1cccc(-c2n[nH]c(=S)n2C(C)COC)c1 (configuration not stated)
  -6.1, 4.4%, 0.0, -6.0, -6.6, ·, 2.6%
- Cc1ccc(C(=O)NCCc2nnc3ccc(SCC(=O)Nc4c(C)cc(C)cc4C)nn23)cc1
  15.2, 14.3%, 0.7, 0.8, 8.0, -7.0%, 7.5%
- CC(=O)c1cccc(NC(=O)Cn2cnc(S(=O)(=O)N3CCCCC3)c2)c1
  18.6, 9.1%, -0.8, 2.9, 0.0, 0.6%, -1.6%
- Cc1c(-n2cc(C(=O)O)c(=O)c3cc(F)c(N4CCCC(O)C4)c(F)c32)c(=O)n(-c2ccccc2)n1C (configuration not stated)
  21.2, -8.8%, -0.1, -1.2, -3.0, 10µM*, 1.6%
- CCOc1ccc(C(=O)c2c(N)c(-c3nc(-c4ccc5c(c4)OCO5)cs3)c3ccccn23)cc1
  11.6, ·, 0.6, ·, ·, -0.6%, 1.9%
- Cc1ccc(C=C2C(=O)c3ccccc3C2=O)o1
  -2.2, -10.3%, 2.2, 8.4, 1.8, 1.3%, 6.8%
- COc1ccc(CCNC(=O)[C@@H](NC(=O)N2CCn3c2nc2ccccc23)C(C)C)cc1OC
  1.8, 0.2%, -0.1, -4.5, -7.9, -2.3%, -0.5%
- CCCCN1C(=O)C(=O)NC[C@@H]1CCCCN
  -6.0, ·, -0.1, ·, ·, 1.1%, 0.0%
- CCOC(=O)C1CCCN(c2ncnc3c2nnn3C)C1 (configuration not stated)
  -3.5, ·, 0.1, ·, ·, -1.1%, -0.9%
- CCSc1nc(O)cc(=O)n1-c1ccc(OC)cc1
  -2.0, -4.4%, 1.2, 1.0, -3.3, -1.0%, -1.9%[38.3 µM]
- CC(=O)c1ccc(NC(=O)c2cc(=O)[nH]c3ccccc23)cc1
  4.8, 25.0%, -0.2, 0.5, 5.0, ·, 11.6%
- CCC(Sc1nc2c(c(=O)[nH]1)CCC2)C(=O)Nc1cccc(OC)c1 (configuration not stated)
  23.3, 18.9%, 3.4, 0.9, 15.6, -1.9%, 1.5%[38.3 µM]
- COC(=O)NCc1ccc(CNC(=O)OC)cc1
  -14.3, -2.8%, -0.5, -0.2, 2.9, -0.9%, 1.7%
- CCC1C(c2ccccc2)=CCC(C(=O)O)C1C (configuration not stated)
  10.6, ·, 0.1, ·, ·, ·, 0.1%
- CCCOc1ccc(CN(CCO)CCO)cc1C(=O)OC
  -7.2, 8.8%, -0.5, 3.5, 2.7, -8.2%, 9.7%[38.3 µM]
- CC(C)c1cc(C(=O)N/N=C/c2c[nH]c3ccccc23)n[nH]1
  8.1, -2.8%, 1.6, 0.5, -2.1, -3.9%, 1.8%
- CC(C)(C)CC(=O)Nc1cccc2c1CCCC2
  6.8, 17.3%, -0.9, 2.8, 15.6, 0.7%, -0.5%
- O=C(OCC(=O)N1CCc2ccccc2C1)c1ccc(Cl)c([N+](=O)[O-])c1
  11.4, ·, 0.6, ·, -8.7, -2.3%, -0.1%
- O=C(CCn1c(=O)[nH]c2ccccc2c1=O)N1CCN(c2ccc(Cl)cc2)CC1
  32.8, 14.9%, 2.1, -0.3, -20.4, 3.8%, 4.4%
- CCN(CC)c1ccc(/C=N/Nc2ccc(C)cc2)c(O)c1
  -3.6, 39.8µM*, 1.2, 1.4, 1.7, -2.9%, 14.5%
- COc1ccc(Cl)cc1NC(=O)CN(C)C(=O)c1ccc(-n2cncn2)cc1
  -0.4, ·, 0.2, ·, ·, ·, -1.0%
- CC(CC(=O)NCCc1ccc(F)cc1)c1ccccc1 (configuration not stated)
  24.3, 4.7%, -0.5, 5.1, -6.8, 0.9%, -0.9%
- COc1ccccc1NC(=S)NNC(=O)c1ccc(O)cc1
  -23.3, 0.9%, -0.2, 0.7, 0.2, 0.8%, 1.8%
- O=C(NCc1ccccc1Cl)c1ccc2sc([C@@H]3O[C@H](CO)[C@H](O)[C@H](O)[C@H]3O)nc2c1
  ·, ·, -0.5, ·, ·, -3.4%, 0.7%
- Cc1ccc(C)c(N(CC(=O)NN=C2CCCCCCC2)S(C)(=O)=O)c1
  10.6, 9.8%, 0.6, -0.4, 6.2, ?, -2.6%
- CCN=C1SC(CC(=O)Nc2ccc(C(F)(F)F)cc2)C(=O)N1CC (configuration not stated)
  -8.5, -7.9%, 0.1, 0.2, -17.9, -0.2%, ·
- COc1ccc(-c2noc(CSc3nc(-c4ccccc4)cc(=O)[nH]3)n2)cc1OC
  -3.7, 35.5µM*, -0.7, 1.5, 8.2, 0.8%, -2.1%
- O=C(COC(=O)C1CCN(S(=O)(=O)c2ccc(Cl)c(C(F)(F)F)c2)CC1)NCc1ccco1
  -14.8, ·, 0.8, ·, -13.8, -1.4%, 4.2%
- CCCSc1nc2c(c(=O)[nH]c(=O)n2C)n1CCc1ccccc1
  29.6, 17.2%, 0.6, 2.2, -11.2, -3.5%, 2.1%
- Cc1ccc(NC(=O)COC(=O)c2cccc3c2C(=O)c2ccccc2C3=O)c(C)c1
  5.8, 5.5%, 4.6, 4.0, 4.9, -1.0%, 2.5%
- C[C@]12c3[nH]c4ccc(Cl)cc4c3CCN1C(=O)[C@@H](CC(=O)NCc1ccco1)C[C@@H]2C(=O)N1CCCCC1
  -8.9, ·, 0.8, ·, ·, 1.1%, 3.5%
- NC(=O)COC(=O)c1cc(S(=O)(=O)N2CCN(c3ccccc3)CC2)ccc1Cl
  3.4, 9.2%, -0.4, 0.2, 10.8, ·, 9.7%
- Nc1nc(COC(=O)C2CC(=O)N(Cc3ccccc3Cl)C2)nc(Nc2ccccc2)n1 (configuration not stated)
  1.1, ·, 0.3, ·, 3.0, -3.6%, 0.2%
- CC(=O)c1cc(-c2ccccc2)n(CCC(=O)Nc2ccc(C)cc2C)c1C
  -15.3, ·, 1.5, ·, ·, -2.3%, -1.6%
- COc1ccccc1NC(=S)NCc1ccccn1
  -10.4, -18.3%, -0.3, 4.2, -0.8, ·, -0.2%
- CC(C)(C)NC(=O)C1(C)CCC(=O)N1C1CCN(Cc2ccccc2)CC1 (configuration not stated)
  ·, ·, -0.1, ·, ·, -2.5%, 4.7%
- Cc1ccc(-c2noc(=O)n2CC(=O)c2ccc(Cl)cc2)cc1
  29.0, -0.8%, 1.2, 1.9, -5.5, 1.8%, 2.4%
- C#CCOCCOCCOCCNc1nc(N2CCN(C(=O)[C@H](CCC(=O)O)n3cc(C(N)Cc4ccc(O)cc4)nn3)CC2)nc(N2CCN(C(=O)[C@H](CCC(=O)O)n3cc(C(N)CC(C)C)nn3)CC2)n1 (some centres not stated)
  5.9, -18.5%, -1.3, 3.5, 1.8, -3.5%, -0.2%
- O=C(O)CC1(CC(=O)Nc2ccc(C(F)(F)F)cc2)CCCC1
  2.7, 4.9%, -0.7, 1.9, ?, ·, -1.2%
- Fc1ccc(Nc2nnc(C(F)(F)F)s2)cc1Cl
  24.6, 9.0%, 2.3, 0.7, -1.2, ·, ?
- O=C(/C=C/c1ccc(OC(F)F)cc1)Nc1cccc(S(=O)(=O)NC2=NCCCCC2)c1
  -11.4, 10.9%, 2.3, ·, 5.7, -1.4%, 2.1%
- Cc1ccc(NC(=O)NNC(=O)c2snnc2C)cc1
  -3.8, 14.7%, -0.1, -0.6, 6.3, 1.2%, -1.4%
- COc1cc(/C=c2\sc3n(c2=O)C(c2ccccc2)C(c2ccccc2)=NN=3)ccc1O (configuration not stated)
  -6.0, -3.7%, 2.1, ?, 4.3, -1.0%, -0.9%
- CSc1ccccc1NC(=O)C1(C)CCN1C(=O)Cc1ccccc1Cl (configuration not stated)
  ·, ·, -0.8, ·, ·, -0.5%, 1.3%
- O=C(NCc1ccccn1)c1cccc(NS(=O)(=O)c2ccccc2F)c1
  3.9, 15.9%, -0.4, 2.0, -6.1, -1.3%, -1.3%
- O=[N+]([O-])c1ccccc1S(=O)(=O)NCCSCc1ccco1
  4.7, ·, -0.5, ·, 15.1, -2.0%, -1.3%
- COc1ccc(OCCCC(=O)NCC(C)C)cc1
  -5.0, -2.2%, -0.2, -0.8, -13.1, 2.2%, -0.8%
- COc1ccc(OC)c(-n2c(-c3ccc(S(C)(=O)=O)cc3)cc(C=O)c2C)c1
  -16.5, 4.1%, 0.6, 3.3, 0.2, -24.1%, -0.1%
- COCCNC(=S)NCc1cccs1
  3.2, 1.9%, 0.4, -7.1, ?, ·, 0.5%
- O=C(COC(=O)c1cccnc1Cl)NC12CC3CC(CC(C3)C1)C2
  36.2, ·, 0.0, ·, ·, 1.4%, 0.8%
- N#Cc1ccc(-c2ccc(F)cc2)nc1Oc1ccccc1
  16.9, -11.1%, 1.4, -0.6, 28.9, 50.9%, ?
